VACV Venus inh: vaccinia inhibition (Venus reporter); Vaccinia virus Venus reporter expression, fluorescence; Potency, µM (highest dose often 36.5 µM), inactives show at the highest dose activity change, negative = inhibition, hits mostly inhibitors; 330,000 compounds, 0.46% hits; active means well fitted inhibition curve with a large enough effect; inconclusive means small, poorly fitted or top-dose-only effect; inactive means no such curve, though single readings can be large or run the other way; tested in A549 cells; further: nearly all actives have a fitted effect of over 30% in size; inactives centre near -10
VACV mCherry inh: vaccinia inhibition (mCherry reporter); Vaccinia virus mCherry reporter infection, fluorescence; about a quarter of the inactives have no number; Potency, µM (series often up to 36.5 µM), for the others: top-dose activity change, negative = inhibition, actives largely listed as inhibitors; 310,000 compounds, 0.63% hits; active = well fitted inhibition curve with a large enough effect; inconclusive = small, poorly fitted or top-dose-only effect; inactive = no such curve, though single readings can be large or run the other way; tested in A549 cells; further: nearly all actives have a fitted effect of over 35% in size; inactives centre near -10
Starred values were filed as active, the others as inactive; i = inactive; ? = inconclusive; nt = not tested or not shown; & = joins results of further samples; [ ] = remark or other dose. On the % scale 0 is the no-effect control and ±100 the full control effect; potency means the concentration at half of the fitted maximal effect.

molecule | VACV Venus inh | VACV mCherry inh
Cc1c(OCC(=O)NC(Cc2ccc(Cl)cc2)C(=O)O)ccc2c3c(c(=O)oc12)CCCC3 (configuration not stated) | 19.2% | 6.1%
COCCn1c(SCC(=O)Nc2ccc(C(C)=O)cc2)nc2c([nH]c3ccccc32)c1=O | 11.3% | -1.4%
COC(=O)[C@H](Cc1ccccc1)NC(=O)NCc1ccc(S(N)(=O)=O)cc1 | -7.9% | -6.8%
NNC(=O)CNC(c1ccccc1)c1cc(Br)ccc1NC(=O)c1cccc(Cl)c1 (configuration not stated) | -1.1% | -10.5%
CCCC[n+]1c(/C=C/c2ccc(N(C)C)cc2)sc2ccccc21 | -5.0% | ?
Cc1[nH]c(SCC(=O)c2c(N)n(C)c(=O)n(C)c2=O)nc1Cc1ccccc1 | -9.0% | -0.1%
O=C(NC1CCCC1)c1cccc(S(=O)(=O)N2CCCCC2)c1 | -19.4% | nt
Cc1ccc(S(=O)(=O)NC2c3cccc4cccc(c34)C2Sc2ncccn2)cc1 (configuration not stated) | -25.3% | ?
Nn1c(SCc2ccccn2)nncc1=O | -12.7% | -3.9%
CC1=C2C(O)C(=O)OC3CC4C(C)(C)C(=O)C=C[C@]4(C)C(CC1)[C@@]23C (some centres not stated) | -11.3% | i
Cc1cc(NC(=O)n2ncc3c(C)cccc32)ccc1Br | -9.3% | -7.6%
Cc1cc(C)c2nc(-c3ccccn3)cc(C(=O)N3CCCC3)c2c1 | 0.8% | -5.2%
Cc1cc(C(=O)N/N=C/c2cccc3ccccc23)c(C)o1 | 0.0% | -1.2%
Cc1cc(C)c(NC(=S)N(CCN2CCCCC2)Cc2ccco2)c(C)c1 | -1.0% | -6.1%
N#Cc1c(-c2ccc(Cl)cc2)ccnc1N1CCOCC1 | -26.7% | i
NC(=O)C1CCN(C(=O)Cc2ccc([N+](=O)[O-])cc2)CC1 | -10.3% | i
Cc1ccc(-c2nc(C(=O)NC3CCCCCC3)no2)cc1 | -8.7% | -8.8%
O=C(CCc1nc(-c2ccccc2Cl)no1)NCc1ccco1 | -7.7% | i
O=C(c1cn2ccccc2n1)N1CCCC(Nc2ccc(F)c(F)c2)C1 (configuration not stated) | -3.6% | -7.2%
CCn1cc(CNC(=O)CCc2nnc(CCC3CCCCC3)o2)cn1 | -20.7% | -3.4%
COc1ccc(Cl)cc1C(=O)NC1=NCCS1 | -3.8% | i
Cc1nn(-c2ccc(N3CCOCC3)nn2)c(C)c1CCC(=O)NCc1ccccc1 | -5.1%&-15.7% | -4.9%
C=CCNC(=O)c1snnc1-c1ccccc1 | -8.1% | nt
CCOc1ccccc1NC(=O)NC(CC)c1c(-n2cccc2)sc2c1CCN(C)C2 (configuration not stated) | -17.9% | -18.3%
CS(=O)(=O)Nc1ccccc1C(=O)OCc1cc(=O)n2nc(C3CCCCC3)sc2n1 | -15.0% | -19.2%
Cc1c(C(=O)Nc2ccc(Cl)cn2)oc2ccccc12 | -5.9% | -10.3%
Cc1ccc(C)c(N(C(=O)c2csnn2)C(C(=O)NC2CCCCC2)c2cccnc2)c1 (configuration not stated) | -2.4% | -3.2%
CCN1CCN(C(=S)NCC2CCCO2)CC1 (configuration not stated) | -14.0% | -1.4%
CC(C)OCCCNC(=O)CCCn1c(=O)[nH]c2ccsc2c1=O | -2.9% | -12.9%
O=C(Nc1ccc2ccccc2c1)Nc1ccc2snnc2c1 | ? | ?
COc1cccc(C(=O)N2CCN(CCCc3ccccc3)CC2)c1OC | -17.0% | -23.3%
N#C/C(=C(/O)c1ccc(F)cc1)c1nc2ccccc2s1 | -28.1% | ?
Cc1ccc(/C=N/NC(=S)NC2CCCCC2)o1 | -12.6% | -19.1%
N#Cc1cc(-c2ccccc2)nnc1Sc1ccc(Cl)cc1 | -23.9% | nt
Cc1ccc(OCc2ccc(C(=O)Nc3nc4ccccc4n3C)o2)c([N+](=O)[O-])c1 | -9.3% | -4.5%
O=C(CN1C(=O)/C(=C\c2cccc(Br)c2)Oc2ccccc21)NCCCN1CCOCC1 | -14.8%[7.34 µM] | -28.4%[7.34 µM]
CC1(C)OC2OC(COC(=O)c3ccc([N+](=O)[O-])cc3)C3OC(C)(C)OC3C2O1 (configuration not stated) | -0.3% | i
Cc1cccc(C(O)c2ncc(-c3ccc(Cl)cc3)[nH]2)c1C (configuration not stated) | -13.8% | i
CCCCC(=O)Nc1nnc(SCC(=O)NC2CC2)s1 | -18.9% | -0.8%
O=C(NCCCn1ccnc1)C(=O)NCC1OCCN1S(=O)(=O)c1ccc(Br)cc1 (configuration not stated) | -0.8% | i
Cn1cccc1/C=C(/C#N)c1ccc(F)cc1 | 5.1% | i
O=C(NCCOCCn1c(=O)oc2ccccc21)Nc1ccc(F)cc1 | 7.9% | -1.6%
Cc1cc(OC(C)C(=O)NC2CC(C)(C)NC(C)(C)C2)c2c(C)c(C)c(=O)oc2c1 (configuration not stated) | -19.7% | 13.2%
CC1CCCN(C(=O)C(C)Nc2cc(Cl)ccc2N2CCOCC2)C1 (configuration not stated) | 9.0% | ?
CCOc1ccc2c(c1)c(N=NC(=N)N)c(O)n2C | -20.7% | -29.6%
CC(=O)OCCSc1c(-c2ccccc2)c2cc(Cl)ccc2[nH]c1=O | ? | -28.6%
Cc1cccc(C)c1C(O)c1ncc(-c2ccccc2C(F)(F)F)[nH]1 (configuration not stated) | 6.3% | 20.5%
COc1ccc(C2C(C(=O)c3ccccc3)=C(C)Nc3nc4ccccc4n32)cc1OC (configuration not stated) | -26.3% | -27.1%
COc1ccc(-c2nc3c4cnn(-c5ccccc5F)c4ncn3n2)cc1 | -13.7% | -13.6%
Cc1ccccc1CNC(=O)Cn1ncn2nc(-c3cccs3)cc2c1=O | -2.3% | -12.2%
Cc1cc(Br)ccc1S(=O)(=O)n1ccnc1C | -6.7% | i
Cc1cc(C)nc(SCC(=O)Nc2cccc(S(=O)(=O)N(C)C)c2)n1 | -5.0% | -4.9%
Cc1snc(SCc2ccc(F)cc2)c1C#N | -10.0% | -6.3%
O=C(CSc1ncnc2c1oc1ccccc12)Nc1ccccc1F | -18.0% | i
CCOc1ccc(CNC(=O)C2CCCN(S(=O)(=O)N(C)c3ccc(F)cc3)C2)cc1OC (configuration not stated) | -6.6% | -10.0%
CCCCN(C)S(=O)(=O)c1cc(-c2nnc3c4ccccc4c(C)nn23)ccc1C | -26.1% | ?
COc1ccccc1NC(=O)c1sc(-c2ccc(Cl)cc2)cc1N | -8.1%[7.34 µM] | -4.2%[7.34 µM]
Cc1ccc(C)c(C(=O)COC(=O)CN2C(=O)C3C4C=CC(C4)C3C2=O)c1 (configuration not stated) | -6.7% | i
CCC(c1nc2ccccc2[nH]1)n1c(-c2ccc3ccccc3c2)nc2ccccc21 (configuration not stated) | -12.1% | -4.1%
CCOC(=O)N1C=CC=C[C@@H]2[C@@H](N3C(=O)c4ccccc4C3=O)C(=O)N21 | -0.3% | -16.4%

(next part)
molecule | VACV Venus inh | VACV mCherry inh
C[C@@H](OC(=O)c1[nH]cnc1C(=O)N1CCc2ccccc2C1)c1ccccc1 | -11.3% | i
COCCNc1ccc(S(=O)(=O)N2CCCC2)cn1 | -9.9% | -2.2%
C#CCOCCOCCOCCNc1nc(N2CCN(C(=O)[C@H]([C@@H](C)CC)n3cc(CCCCN)nn3)CC2)nc(N2CCN(C(=O)[C@H](CCCCN)n3cc(CCCC)nn3)CC2)n1 | -15.3% | i
COc1ccc(NS(=O)(=O)c2cc(NC(=O)c3cnc(C)cn3)ccc2N2CCCC2)cc1 | ? | -15.3%
Oc1cccc(C(Nc2ccccn2)c2ccc3cccnc3c2O)c1Cl (configuration not stated) | ? | ?
CC(C)CC1C(=O)N(Cc2cn(CCC3OCCO3)nn2)CCS(=O)(=O)N1Cc1ccc(-c2cccc(CO)c2)cc1 (configuration not stated) | -20.7% | i
COc1ccc(S(=O)(=O)NCC(=O)Nc2ccc3c(c2)OCCO3)cc1OC | -21.3% | i
CCC(Cn1nnc2ccccc2c1=O)NC(=O)Nc1cc(C)cc(C)c1 (configuration not stated) | -10.6% | -4.7%
CCN1C(=O)CCC(C(=O)O)C1c1ccc(OC)cc1 (configuration not stated) | -12.1%[7.34 µM] | -0.1%[7.34 µM]
CC(C)N1C(=O)CC2(CC[N+](C)(CCOC(=O)C(c3ccccc3)c3ccccc3)CC2)C1=O (configuration not stated) | 1.1% | -4.8%
Cc1ccc(NC(=O)COc2ccc(/C=C3/SC(=Nc4ccccc4)N(Cc4cccnc4)C3=O)cc2)cc1 | -8.0% | nt
c1ccc2c(c1)CCCc1cc(NCCN3CCOCC3)nnc1-2 | -13.7% | -7.2%
CCC(C)Sc1ccc([C@@H]2[C@@H]3C(=O)N(CC)C(=O)[C@@H]3[C@]3(C(=O)OC)CCCCN23)cc1 (some centres not stated) | ? | -11.5%
COc1ccc(-c2nc(C(N)=O)c3c(n2)n(-c2ccccc2OC)c(=O)n3C)c(OC)c1 | -3.5% | -6.2%
CCO[C@H]1OC(C(=O)NC2CC2)=C[C@@H](c2ccc(C(F)(F)F)cc2)[C@@H]1CCCO | -13.7% | i
CCOC(=O)c1c(C)[nH]c(C)c1C(=O)COC(=O)COc1ccc(Cl)c(C)c1 | -8.1% | -11.2%
CCS(=O)(=O)N1CCN(C(=O)CCC2CCCC2)CC1 | -8.9% | -1.8%
O=C(Cc1cnc2ncnn2c1)N1CCc2c([nH]c3ccccc23)C1c1ccccc1F (configuration not stated) | -4.7% | i
CCn1c(SC(C)C)nnc1-c1c[nH]c2ccccc12 | -27.2% | ?
O=C(Nc1cccnc1)C(Cc1ccccc1)n1cccc1 (configuration not stated) | -8.4% | -3.8%
COc1ccc(F)cc1S(=O)(=O)Nc1cccc(-c2ccc(N3CCC(C)CC3)nn2)c1 | ? | ?
Cc1ccccc1CN(C)CC(=O)Nc1cccc(S(=O)(=O)N(C)c2ccccc2)c1 | -3.3% | -11.9%
O=c1c2ccccc2c(=O)n(-c2ccccc2)n1-c1ccccc1 | -7.5% | -14.6%
COc1ccccc1/C=C\C(=O)NCC(=O)N/N=C/c1cccc(OC)c1O | -26.6% | ?
Cc1cccc2cc(COC(=O)c3cccc([N+](=O)[O-])c3)c(=O)[nH]c12 | -6.7% | -0.2%
Cc1ccccc1Nc1nc(N)nc(COC(=O)c2ccccc2)n1 | -11.3% | -18.0%
CCOc1cc(C(=O)N2CCC(CC3CC(c4ccc(Cl)cc4)=NO3)(C(=O)NCC3CCCCC3)CC2)cc(OCC)c1OCC (configuration not stated) | ? | -6.3%
CCOC(=O)c1nn(-c2ccccc2)c(=O)cc1SC(C)C | -6.8% | -9.4%
COc1ccc(S(=O)(=O)N(C)C[C@@H]2Oc3c(NS(C)(=O)=O)cccc3C(=O)N([C@@H](C)CO)C[C@H]2C)cc1 | -3.7% | i
O=S(=O)(NCCS(=O)(=O)N1CCN(c2ccccc2)CC1)c1ccc(Cl)cc1 | -11.7% | i
O=C(CNC(=O)c1ccc(Br)cc1)OCC(=O)c1ccccc1 | -9.0% | i
COC(Cc1ccccc1N1CCCC1=O)OC | 1.1% | i
Cc1ccc(-c2nc3cc(C)c(Br)c(C)n3c2Cc2cccc(Cl)c2)cc1 | 0.1% | 4.0%
CCCSC1=C(C#N)C(c2ccc(O)c(OC)c2)CC(=O)N1 (configuration not stated) | -11.7% | -12.3%
C/C(=N\NS(=O)(=O)c1ccc(C)cc1)c1cc2ccccc2oc1=O | 1.5% | -7.4%
Cc1ccc(-c2nnc(Nc3ccc(S(N)(=O)=O)cc3)c3ccccc23)cc1S(=O)(=O)N1CCCCC1 | -5.4% | -13.3%
O=C(NCc1cccs1)C1CCN(S(=O)(=O)N2CCCC2)CC1 | -13.3% | -12.0%
COc1ccc(C2C(Oc3ccccc3)C(=O)N2c2cc(C)ccc2C)cc1OC (configuration not stated) | -11.2% | -8.6%
Cc1cc(Cl)ccc1OCCCC(=O)N1CCOCC1 | -6.0% | -4.0%
CC(=O)Nc1ccc(/C=N/NS(=O)(=O)c2cc(C)ccc2C)cc1 | -6.4% | -0.7%
CSc1cccc(NC(=S)N(CCCN2CCCC(C)C2)Cc2cccs2)c1 (configuration not stated) | -24.8% | -3.4%
CCN(CC)C(=O)CSC1=C(C#N)C(c2cccs2)C=C(C)N1 (configuration not stated) | -10.2% | nt
O=C(COc1ccccc1)NCCn1ccc2ccccc21 | -4.7% | -13.1%
Cc1ccc(C(=O)Nc2cccc(N3C(=O)C4CCC(C)CC4C3=O)c2)cc1 (configuration not stated) | -5.2% | -13.1%
CC(=O)c1ccc(N(CC(=O)Nc2cc(C)on2)S(=O)(=O)c2ccc(C)cc2)cc1 | -11.3% | -20.6%
CCN1CCN(C(=O)Cn2ncc3c4ccccc4n(Cc4c(C)cc(C)cc4C)c3c2=O)CC1 | 3.3%[7.34 µM] | -2.9%[7.34 µM]

Part of the list above, with each value named:
CSc1cccc(NC(=S)N(CCCN2CCCC(C)C2)Cc2cccs2)c1 (configuration not stated)
- VACV Venus inh: -24.8%
- VACV mCherry inh: -3.4%
CCN(CC)C(=O)CSC1=C(C#N)C(c2cccs2)C=C(C)N1 (configuration not stated)
- VACV Venus inh: -10.2%
- VACV mCherry inh: nt

Assay outcomes from PubChem BioAssay.
